Source: PubChem (Broad Institute)
A1 apoptosis 2 – A1 inhibition read as caspase activation; 24,000 tested, under 10 active; MEF A1-2A-BIM cells, caspase-Glo luminescence, 3 h; percent of clofoctol response, DMSO zero; caspase activation, % (no concentration beside the values); AID 2465; in the data active means caspase activation above about 5.9%;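 further: wells of about 30 µL received 50 nL stock; the first replicate is given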
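System: mouse embryonic fibroblasts co-expressing A1 and BIM (A1-2A-BIM), primed for A1 dependence; amount: 2500 cells/well; doses: 50 nL pinned compound; schedule: cells settled overnight, compound exposure 3 h at 37 °C, 5% CO2; detection: Caspase-Glo 3/7 luminescence, 1 h at room temperature; read-out: Caspase-3/7 activation, seen as rise in luminescence signal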
* marks the source's active call; other numbers are inactive results.

SMILES | A1 apoptosis 2
C[C@H](CO)N1C[C@H](C)[C@H](CN(C)S(C)(=O)=O)Oc2ccc(NC(=O)Cc3ccccc3)cc2C1=O | -0.7
CCCC(O)C#Cc1cnc2c(c1)C(=O)N([C@H](C)CO)C[C@H](C)[C@H](CN(C)Cc1ccc3c(c1)OCO3)O2 (some centres not stated) | -0.9
Cc1ccc(S(=O)(=O)N(C)C[C@H]2Oc3c(NS(=O)(=O)c4ccc(F)cc4)cccc3C(=O)N([C@@H](C)CO)C[C@@H]2C)cc1 | -0.1
C[C@H](CO)N1C[C@H](C)[C@@H](CN(C)Cc2ccc(C(=O)Nc3ccccc3N)cc2)Oc2c(NS(=O)(=O)c3cccs3)cccc2C1=O | 1.3
C[C@@H]1CCCCO[C@H](CN(C)C(=O)C2CCCCC2)[C@H](C)CN([C@H](C)CO)C(=O)c2cc(NC(=O)NC3CCCCC3)ccc2O1 | 1.1
C[C@H](CO)N1C[C@H](C)[C@H](CN(C)Cc2ccc(C(=O)O)cc2)OCCCC[C@H](C)Oc2ccc(NC(=O)Nc3ccc(F)cc3)cc2C1=O | 0.4
CNC[C@@H]1OCCCC[C@@H](C)Oc2ccc(NC(=O)Nc3ccc(OC)cc3)cc2C(=O)N([C@H](C)CO)C[C@H]1C | 0.8
C[C@@H]1CN([C@@H](C)CO)C(=O)Cc2cc(NC(=O)NC3CCCCC3)ccc2O[C@@H]1CN(C)Cc1ccc(C(=O)Nc2ccccc2N)cc1 | 1.0
CNC[C@H]1Oc2c(NS(=O)(=O)c3cccs3)cccc2C(=O)N([C@H](C)CO)C[C@H]1C | -0.3
C[C@@H]1CN([C@@H](C)CO)C(=O)Cc2cc(NC(=O)CCC(F)(F)F)ccc2O[C@H]1CN(C)C(=O)Nc1ccc2c(c1)OCO2 | -0.3
C[C@@H]1CN([C@@H](C)CO)C(=O)c2cccc(NS(=O)(=O)c3ccccc3)c2O[C@H]1CN(C)C(=O)NC1CCCCC1 | -1.4
C[C@@H]1CCCCO[C@H](CN(C)C(=O)NC2CCCCC2)[C@H](C)CN([C@H](C)CO)C(=O)c2cc(NC(=O)Nc3cccc4ccccc34)ccc2O1 | 0.5
C[C@@H]1CN([C@H](C)CO)C(=O)CCCn2cc(nn2)CO[C@@H]1CN(C)C(=O)Nc1ccc(N2CCN(C)CC2)cc1 | -0.5
CC(C)NC(=O)Nc1ccc2c(c1)C(=O)N([C@@H](C)CO)C[C@H](C)[C@H](CN(C)C(=O)Cc1ccccc1)OCCCC[C@@H](C)O2 | 1.4
C=CC1c2cc(OC)c(OC)cc2CC(C)N1Cc1ccc(OC)cc1 (configuration not stated) | 0.0

Part of the list above in order of length of the SMILES, high to low:
SMILES | A1 apoptosis 2
C[C@@H]1CCCCO[C@H](CN(C)C(=O)NC2CCCCC2)[C@H](C)CN([C@H](C)CO)C(=O)c2cc(NC(=O)Nc3cccc4ccccc34)ccc2O1 | 0.5
C[C@H](CO)N1C[C@H](C)[C@H](CN(C)Cc2ccc(C(=O)O)cc2)OCCCC[C@H](C)Oc2ccc(NC(=O)Nc3ccc(F)cc3)cc2C1=O | 0.4
C[C@@H]1CCCCO[C@H](CN(C)C(=O)C2CCCCC2)[C@H](C)CN([C@H](C)CO)C(=O)c2cc(NC(=O)NC3CCCCC3)ccc2O1 | 1.1

Additional entries:
SMILES | A1 apoptosis 2
C[C@H](CO)N1C[C@H](C)[C@H](CN(C)C)Oc2ccc(NC(=O)Nc3ccc(F)cc3)cc2C1=O | -0.6
Cc1ccc(S(=O)(=O)N(C)C[C@@H]2Oc3ccc(NC(=O)NC4CCCCC4)cc3C(=O)N([C@H](C)CO)C[C@H]2C)cc1 | 0.0
Cc1ccc(S(=O)(=O)N(C)C[C@@H]2OCCCC[C@H](C)Oc3ccc(N(C)C)cc3C(=O)N([C@@H](C)CO)C[C@@H]2C)cc1 | -0.6
C[C@@H]1CN([C@@H](C)CO)C(=O)Cc2cc(NS(=O)(=O)c3cccs3)ccc2O[C@@H]1CN(C)S(=O)(=O)c1ccc(F)cc1 | 0.1
COc1ccc(S(=O)(=O)N(C)C[C@H]2Oc3ccc(NC(=O)CCN4CCOCC4)cc3C(=O)N([C@@H](C)CO)C[C@H]2C)cc1 | -0.3
COc1ccc(S(=O)(=O)N(C)C[C@H]2Oc3ccc(NS(=O)(=O)c4ccccc4)cc3CC(=O)N([C@@H](C)CO)C[C@@H]2C)cc1 | -0.7
C[C@H]1CN([C@@H](C)CO)C(=O)CCCn2cc(nn2)CO[C@H]1CN(C)S(=O)(=O)c1ccc(-n2cccn2)cc1 | 0.2
COC(=O)C(CC#Cc1ccc2c(c1)[C@]1(C(=O)N2)[C@H](c2ccc(O)cc2)N2[C@H](c3ccccc3)[C@H](c3ccccc3)OC(=O)[C@H]2[C@@H]1C(N)=O)C(=O)OC | -1.3
CNC[C@@H]1OCCCC[C@H](C)Oc2ccc(NC(=O)Nc3cccc4ccccc34)cc2C(=O)N([C@H](C)CO)C[C@@H]1C | 0.3
CC(C)NC(=O)N(C)C[C@@H]1OCc2cnnn2CCCC(=O)N([C@H](C)CO)C[C@H]1C | 0.4
Cc1noc(C)c1NC(=O)Nc1ccc2c(c1)CC(=O)N([C@H](C)CO)C[C@H](C)[C@H](CN(C)CC1CC1)O2 | -0.7
Cc1noc(C)c1S(=O)(=O)Nc1ccc2c(c1)C(=O)N([C@@H](C)CO)C[C@@H](C)[C@@H](CN(C)C(=O)Nc1ccc3c(c1)OCO3)O2 | 0.3
C[C@@H]1CCCCO[C@H](CN(C)S(=O)(=O)c2cccs2)[C@H](C)CN([C@H](C)CO)C(=O)c2cc(NC(=O)NC3CCCCC3)ccc2O1 | 0.8
C[C@H]1CN([C@@H](C)CO)C(=O)c2cccc(NC(=O)c3ccncc3)c2O[C@@H]1CN(C)C(=O)Nc1ccccc1 | -1.1
C[C@@H]1CCCCO[C@H](CN(C)Cc2ccncc2)[C@@H](C)CN([C@H](C)CO)C(=O)c2cc(N(C)C)ccc2O1 | -0.2

Random excerpt: 4 records from the list
SMILES | A1 apoptosis 2
CCCC(O)C#Cc1cnc2c(c1)C(=O)N([C@H](C)CO)C[C@H](C)[C@H](CN(C)Cc1ccc3c(c1)OCO3)O2 (some centres not stated) | -0.9
C[C@@H]1CCCCO[C@H](CN(C)C(=O)NC2CCCCC2)[C@H](C)CN([C@H](C)CO)C(=O)c2cc(NC(=O)Nc3cccc4ccccc34)ccc2O1 | 0.5
C[C@@H]1CN([C@@H](C)CO)C(=O)Cc2cc(NS(=O)(=O)c3cccs3)ccc2O[C@@H]1CN(C)S(=O)(=O)c1ccc(F)cc1 | 0.1
CC(C)NC(=O)Nc1ccc2c(c1)C(=O)N([C@@H](C)CO)C[C@H](C)[C@H](CN(C)C(=O)Cc1ccccc1)OCCCC[C@@H](C)O2 | 1.4

Further records.
SMILES | A1 apoptosis 2
C[C@@H]1CN([C@H](C)CO)C(=O)Cc2cc(N(C)C)ccc2O[C@@H]1CN(C)S(=O)(=O)c1cccs1 | 1.6
C[C@H](CO)N1C[C@H](C)[C@H](CN(C)C(=O)Nc2ccccc2)Oc2c(NC(=O)c3nc4ccccc4s3)cccc2C1=O | -0.3
C[C@@H]1CN([C@H](C)CO)C(=O)Cc2cc(NC(=O)Cc3cn(C)c4ccccc34)ccc2O[C@H]1CN(C)CC1CC1 | 1.2
C[C@@H]1CCCCO[C@@H](CN(C)Cc2ccc(C(=O)O)cc2)[C@H](C)CN([C@@H](C)CO)C(=O)c2cc(NS(C)(=O)=O)ccc2O1 | 0.4
Cc1ccc(S(=O)(=O)Nc2ccc3c(c2)C(=O)N([C@@H](C)CO)C[C@@H](C)[C@@H](CN(C)C(=O)Nc2ccc(F)cc2)O3)cc1 | 1.0
C[C@@H]1CN([C@H](C)CO)C(=O)Cc2cc(NC(=O)Nc3ccc(F)cc3)ccc2O[C@H]1CN(C)C | 0.2
C[C@@H]1CCCCO[C@@H](CN(C)S(=O)(=O)c2cccs2)[C@@H](C)CN([C@@H](C)CO)C(=O)c2cc(NS(=O)(=O)c3ccc(Cl)cc3)ccc2O1 | -0.3
Cc1ccc(S(=O)(=O)Nc2cccc3c2O[C@H](CN(C)C)[C@H](C)CN([C@H](C)CO)C3=O)cc1 | -0.7
Cc1noc(C)c1NC(=O)Nc1ccc2c(c1)C(=O)N([C@H](C)CO)C[C@@H](C)[C@@H](CN(C)Cc1ccncc1)OCCCC[C@H](C)O2 | -0.7
COc1ccc(NC(=O)N(C)C[C@@H]2Oc3c(NS(=O)(=O)c4ccc(F)cc4)cccc3C(=O)N([C@@H](C)CO)C[C@H]2C)cc1 | 0.9
C[C@@H]1CN([C@H](C)CO)C(=O)c2cccc(NC(=O)Nc3ccc(F)cc3)c2O[C@@H]1CN(C)S(=O)(=O)c1ccc(Cl)cc1 | -0.4
COc1ccc(C#Cc2ccc3c(c2)[C@]2(C(=O)N3)[C@H](c3ccccc3OCCO)N3[C@H](c4ccccc4)[C@H](c4ccccc4)OC(=O)[C@H]3[C@@H]2C(=O)N2CCN(c3ncccn3)CC2)cc1 | -0.8
C[C@H](CO)N1C[C@H](C)[C@H](CN(C)Cc2ccc(C(=O)Nc3ccccc3N)cc2)Oc2c(NS(=O)(=O)c3ccc(Cl)cc3)cccc2C1=O | 1.5
C[C@H]1CN([C@@H](C)CO)C(=O)c2cc(NC(=O)CCN3CCOCC3)ccc2O[C@@H]1CN(C)Cc1ccc(C(=O)Nc2ccccc2N)cc1 | 0.1
O=C(NO)c1cccc(C(=O)N/N=C/c2ccc(O)c(O)c2)c1 | 0.1
CNC[C@H]1Oc2ccc(NC(=O)Cc3ccccc3)cc2CC(=O)N([C@@H](C)CO)C[C@H]1C | 0.5
Cc1noc(C)c1S(=O)(=O)Nc1ccc2c(c1)C(=O)N([C@H](C)CO)C[C@@H](C)[C@@H](CN(C)S(=O)(=O)c1cccs1)OCCCC[C@H](C)O2 | -0.5
C[C@H]1CN([C@@H](C)CO)C(=O)c2cccc(NC(=O)c3ccncc3)c2O[C@@H]1CN(C)C(=O)Nc1cccc2ccccc12 | 1.1
C[C@@H]1CCCCO[C@H](CN(C)Cc2ccc(C(=O)O)cc2)[C@H](C)CN([C@H](C)CO)C(=O)c2cc(NC(=O)C3CCCCC3)ccc2O1 | 0.0
C[C@H]1CN([C@@H](C)CO)C(=O)Cc2cc(NS(=O)(=O)c3ccccc3)ccc2O[C@H]1CN(C)S(=O)(=O)c1ccc(Cl)cc1 | -0.6
COc1ccc(CN(C)C[C@@H]2Oc3ccc(NC(=O)Cc4ccccc4)cc3CC(=O)N([C@H](C)CO)C[C@@H]2C)cc1 | 0.9
COc1ccc(CN(C)C[C@@H]2Oc3ccc(NC(=O)Cn4cnnn4)cc3CC(=O)N([C@@H](C)CO)C[C@@H]2C)cc1 | 0.2
COc1ccc(NC(=O)Nc2ccc3c(c2)C(=O)N([C@H](C)CO)C[C@@H](C)[C@@H](CN(C)S(=O)(=O)c2ccc(F)cc2)OCCCC[C@H](C)O3)cc1 | 0.0
C[C@@H]1CN([C@H](C)CO)C(=O)CCCn2nncc2CO[C@@H]1CN(C)C(=O)C1CC1 | -0.2
C[C@@H]1CCCCO[C@H](CN(C)Cc2ccccc2)[C@@H](C)CN([C@H](C)CO)C(=O)c2cc(NC(=O)CCCN(C)C)ccc2O1 | 1.2
C[C@H](CO)N1C[C@H](C)[C@H](CN(C)Cc2ccc3c(c2)OCO3)Oc2ccc(NS(=O)(=O)c3ccccc3)cc2CC1=O | 0.5
C[C@H]1CN([C@@H](C)CO)C(=O)Cc2cc(NS(=O)(=O)c3ccc(F)cc3)ccc2O[C@@H]1CN(C)S(=O)(=O)c1ccc(F)cc1 | 0.6
C[C@H]1CCCCO[C@@H](CN(C)C(=O)Cc2ccccc2)[C@@H](C)CN([C@@H](C)CO)C(=O)c2cc(NC(=O)CCC(F)(F)F)ccc2O1 | -0.7
C=CC[C@H](OC(=O)Nc1ccc(OC)cc1)c1ccc(OCCO)cc1 | -5.0
Cc1noc(C)c1S(=O)(=O)Nc1cccc2c1O[C@H](CN(C)C(=O)Nc1ccc(F)cc1)[C@H](C)CN([C@H](C)CO)C2=O | -0.1
COc1ccc(S(=O)(=O)N(C)C[C@@H]2Oc3ccc(NS(=O)(=O)c4c(C)noc4C)cc3C(=O)N([C@H](C)CO)C[C@@H]2C)cc1 | -1.2
C[C@@H]1CN([C@@H](C)CO)C(=O)Cc2cc(NC(=O)CCN3CCOCC3)ccc2O[C@H]1CN(C)Cc1ccc(C(=O)O)cc1 | 1.5
Cc1noc(C)c1NC(=O)Nc1ccc2c(c1)CC(=O)N([C@@H](C)CO)C[C@@H](C)[C@@H](CN(C)S(=O)(=O)c1cccs1)O2 | -0.4
CC(C)NC(=O)N(C)C[C@H]1OCCCC[C@H](C)Oc2ccc(NC(=O)Nc3ccc4c(c3)OCO4)cc2C(=O)N([C@H](C)CO)C[C@@H]1C | 1.0
C[C@@H]1CN([C@H](C)CO)C(=O)Cc2cc(NC(=O)NC3CCCCC3)ccc2O[C@@H]1CN(C)C(=O)Nc1ccc(C(F)(F)F)cc1 | 0.4
C[C@H]1CCCCO[C@H](CN(C)Cc2ccc(C(=O)O)cc2)[C@@H](C)CN([C@@H](C)CO)C(=O)c2cc(NC(=O)C3CCCCC3)ccc2O1 | -0.5
C[C@H]1CN([C@@H](C)CO)C(=O)c2cccc(NC(=O)c3ccc(-c4nccs4)cc3)c2O[C@H]1CN(C)Cc1ccc(C(=O)Nc2ccccc2N)cc1 | -2.5
Cc1ccc(S(=O)(=O)N(C)C[C@H]2Oc3c(NC(=O)c4cc(C)nn4C)cccc3C(=O)N([C@H](C)CO)C[C@@H]2C)cc1 | 0.2
CC(C)NC(=O)N(C)C[C@@H]1Oc2ccc(NC(=O)CCN3CCOCC3)cc2CC(=O)N([C@@H](C)CO)C[C@H]1C | -0.2
C[C@H](CO)N1C[C@H](C)[C@H](CN(C)Cc2ccc(C(F)(F)F)cc2)Oc2ccc(N(C)C)cc2C1=O | -0.4

Not all compounds are listed; the hit share may differ from the screen's.
